Rango complex inh = prevents formation of the Rango-importin beta complex; Potency, µM (doses to about 92.2 µM), for the others: at the highest dose inhibition of complex formation; Rango CFP/YFP FRET sensor + importin beta, 45 min; 340,000 tested, 0.031% active; AID 540263; active = rising FRET ratio curve, often small or poorly fitted; inconclusive = mostly compound fluorescence or quenching in the first reads; inactive = flat curves in all reads;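 note: potency is the fitted concentration of half-maximal effect; 0% = DMSO wells and 100% = buffer wells lacking importin beta; nearly all actives have a fitted effect of over 15% in size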
Target sequence (Q14974 whole entry, looked up): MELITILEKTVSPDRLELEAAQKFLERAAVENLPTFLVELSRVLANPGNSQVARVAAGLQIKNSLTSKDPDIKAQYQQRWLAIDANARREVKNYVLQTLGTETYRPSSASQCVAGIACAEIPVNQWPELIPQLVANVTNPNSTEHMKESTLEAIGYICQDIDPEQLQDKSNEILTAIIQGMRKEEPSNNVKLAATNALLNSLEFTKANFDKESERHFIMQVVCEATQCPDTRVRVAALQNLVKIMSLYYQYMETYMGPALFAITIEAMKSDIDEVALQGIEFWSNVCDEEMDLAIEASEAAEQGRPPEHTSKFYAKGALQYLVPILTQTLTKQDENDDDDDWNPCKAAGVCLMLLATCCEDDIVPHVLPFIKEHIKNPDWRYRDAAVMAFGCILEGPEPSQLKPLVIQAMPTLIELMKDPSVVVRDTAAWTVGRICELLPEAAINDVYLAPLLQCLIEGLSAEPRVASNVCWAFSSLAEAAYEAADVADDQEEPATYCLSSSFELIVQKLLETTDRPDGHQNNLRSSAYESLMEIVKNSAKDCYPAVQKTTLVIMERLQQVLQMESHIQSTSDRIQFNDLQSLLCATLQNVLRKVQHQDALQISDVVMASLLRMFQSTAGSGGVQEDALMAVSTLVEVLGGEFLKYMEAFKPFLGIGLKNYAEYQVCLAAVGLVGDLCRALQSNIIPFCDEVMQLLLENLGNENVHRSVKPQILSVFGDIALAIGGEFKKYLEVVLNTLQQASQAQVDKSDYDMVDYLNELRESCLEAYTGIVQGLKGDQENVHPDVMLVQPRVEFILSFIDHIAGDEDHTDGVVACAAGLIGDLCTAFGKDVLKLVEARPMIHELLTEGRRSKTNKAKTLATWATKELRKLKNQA
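FRET biosensor Rango (snurportin 1 IBB between N-terminal EYFP and C-terminal Cerulean), 50 nM in PBS/1 mM DTT/0.02% Tween-20/0.1% BSA, preincubated 5 min RT with compound; 0.125 microM importin beta added, 45 min RT, CFP/YFP FRET ratio read.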
miR-21 FLuc = miR-21 reporter, rising signal; HeLa miR-21 FLuc reporter, luciferase, 48 h; Potency, µM (series often up to 38.3 µM), for the others: at the highest dose reporter change, positive = more light; AID 2288; 340,000 tested, under 10 active; active = well fitted rising curve with a large enough effect; inconclusive = small, poorly fitted or top-dose-only effect; inactive = no such curve, though single readings can be large or run the other way;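 note: % of control where 0% means no effect; miR-21 action dims this reporter so a rising signal means less miR-21 action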
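Compounds were titrated across several concentrations (up to approximately 40 uM) and incubated 48 hours with HeLa miR-21-FLuc reporter cells (miR-21 target sequence downstream of FLuc, endogenous miR-21). Readout was firefly luciferase luminescence after lytic detection reagent.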
Rango release inh = inhibitors of RanGTP-induced Rango-importin beta complex dissociation; O95149+P62826; Biochemical FRET Rango-importin beta, RanGTP-induced dissociation; Potency, µM (top dose mostly 46.1 µM), for the others: at the highest dose activity change, negative = inhibition; 340,000 tested, 0.071% active; active means falling FRET ratio curve, often poorly fitted, with flat reads before Ran was added; inconclusive means other falling curves, or compound fluorescence or quenching; inactive means flat or rising ratio curve;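 note: potency is the fitted concentration of half-maximal effect; % of control where 0% means no effect; nearly all actives have a fitted effect of over 45% in size; -100% = wells without RanGTP and RCC1; the record marks most hits as doubtful in a second field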
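Compounds sat 5 min at room temperature with 0.1 uM Rango biosensor plus 0.25 uM importin beta, then FRET pre-read. RanGTP-RCC1 (0.6 uM Ran, 2mM GTP, 0.2 uM RCC1) added for 45 min, and the CFP/YFP post-read measured blocked complex dissociation.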
GLA inh pH 4.5 = alpha-galactosidase A (human) inhibition, pH 4.5 | P06280 | purified enzyme, 4-MU-alpha-Gal fluorescence, pH 4.5 | activity change, negative = inhibition, % at 105 µM | 230,000 tested, under 10 active | AID 1467; inconclusive = small, poorly fitted or top-dose-only inhibition, or a rising curve; inactive = flat fitted curve, though single readings scatter; no compound was filed as active;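 note: 0% = full activity with enzyme and -100% = basal without enzyme; dose as in the result columns while the protocol names 77 µM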
* marks the source's active call; other numbers are inactive results; ? = inconclusive; / = no result given. This is a subset (hit frequency here may not be typical).

Start of the listing, in advance, two compounds:
1. CCOc1ccccc1C1CC(=O)NC(SCC)=C1C#N (stereo unspecified)
2. CCOC(=O)C1(Cc2cccc(Cl)c2)CCCN(C(=O)CCSC)C1 (stereo unspecified)
Compound,1,2
Rango complex inh,-1.8%,0.5%
miR-21 FLuc,4%,-19%
Rango release inh,13%,3%
GLA inh pH 4.5,5,/

Results, from the start:
1. CCOc1ccccc1C1CC(=O)NC(SCC)=C1C#N (stereo unspecified)
2. CCOC(=O)C1(Cc2cccc(Cl)c2)CCCN(C(=O)CCSC)C1 (stereo unspecified)
3. CN(C)NC(=O)C(NC(=O)c1ccc(N)cc1)C12CC3CC(CC(C3)C1)C2 (stereo unspecified)
4. COc1cccc(N2CCN(S(=O)(=O)c3cc4c(cc3Cl)NC(=O)CO4)CC2)c1
5. COC(=O)c1ncn(C2OC(COC(C)=O)C(OC(C)=O)C2OC(C)=O)n1 (stereo unspecified)
Compound,1,2,3,4,5
Rango complex inh,-1.8%,0.5%,1.0%,3.2%,0.3%
miR-21 FLuc,4%,-19%,0%,1%,-7%
Rango release inh,13%,3%,?,1%,1%
GLA inh pH 4.5,5,/,-5,/,1

Pulled one by one from the list above:
4. COc1cccc(N2CCN(S(=O)(=O)c3cc4c(cc3Cl)NC(=O)CO4)CC2)c1
1. CCOc1ccccc1C1CC(=O)NC(SCC)=C1C#N (stereo unspecified)
Compound,4,1
Rango complex inh,3.2%,-1.8%
miR-21 FLuc,1%,4%
Rango release inh,1%,13%
GLA inh pH 4.5,/,5

Carrying on.
6. Cc1ccc(NC(=O)/C(C#N)=N/Nc2ccc(C(=O)O)cc2)c(C)c1
7. Cc1cc(C(=O)NCCc2ccccc2)c2cc(F)ccc2n1
8. COc1cc(/C=N\NC(=O)CNC(=O)c2cccc([N+](=O)[O-])c2)ccc1O
9. O=C(Nc1ncc2c(n1)-c1ccccc1CC2)C1CC1
10. O=C(Nc1ccc(Cl)cc1)Nc1nnc(SCc2ccccc2)s1
Compound,6,7,8,9,10
Rango complex inh,-2.5%,-0.1%,1.5%,-2.2%,-0.4%
miR-21 FLuc,-4%,-2%,0%,10%,-40%
Rango release inh,17%,-2%,0%,-5%,0%
GLA inh pH 4.5,-8,6,1,7,7

11. O=C(Nc1c(F)cccc1F)c1cnc(N2CCN(c3ccccn3)CC2)c2ccccc12
12. COc1ccc(S(=O)(=O)N(CCN2CCOCC2)Cc2cc(OC)ccc2OC)cc1
13. CCn1c(SCC(=O)OC)nnc1-c1ccc(C)cc1
14. N#Cc1ccc(Oc2ccc(-c3nc4ccccc4nc3-c3ccccc3)cc2)cc1C#N
15. CCN=C1SC(C(=O)Nc2cccc(C)c2)CC(=O)N1CC (stereo unspecified)
Compound,11,12,13,14,15
Rango complex inh,-2.2%,3.2%,-1.7%,4.3%,-4.5%
miR-21 FLuc,?,-1%,0%,-5%,1%
Rango release inh,4%,3%,-7%,-12%,0%
GLA inh pH 4.5,-11,-2,-4,6,-8

16. CCOc1ccc(CCNC(=O)C2CCN(c3nn4c(=O)cc(C)nc4s3)CC2)cc1
17. Cc1ccc(C(=O)NN2C(=O)C3C4c5ccccc5C(c5ccccc54)[C@@H]3C2=O)cc1 (stereo partly specified)
18. CC1Cc2ccccc2N1C(=O)c1nn(C)cc1Br (stereo unspecified)
19. C#C[C@]1(O)CC[C@H]2[C@@H]3CCC4=Cc5oncc5C[C@]4(C)[C@H]3CC[C@@]21C
20. O=C1CC(C(=O)Nc2ccccc2)C2(CCCC2)O1 (stereo unspecified)
Compound,16,17,18,19,20
Rango complex inh,-2.6%,-0.2%,-3.8%,2.5%,-0.6%
miR-21 FLuc,-8%,-5%,-9%,/,-3%
Rango release inh,13%,-7%,5%,5%,5%
GLA inh pH 4.5,-4,-1,3,/,8

21. COC(=O)c1ccccc1NC(=O)c1ccc2nccnc2c1
22. Cc1cccc(NC(=O)CSCC(=O)Nc2ccccc2N2CCCCC2)c1
23. CCCCNC(=O)c1onc(CSc2nc3ccccc3[nH]2)c1C(=O)NCCCC
24. COc1ccc2c(C)cc(=S)[nH]c2c1
25. N#Cc1cccnc1N1CCN(C(=O)COCC(=O)O)CC1
Compound,21,22,23,24,25
Rango complex inh,-6.6%,2.9%,-0.2%,0.6%,-1.8%
miR-21 FLuc,-6%,/,12%,-3%,8%
Rango release inh,0%,-6%,?,-7%,-14%
GLA inh pH 4.5,-13,/,/,-4,11

26. Cc1ccccc1-n1c(SCC(=O)O)nc2sc3c(c2c1=O)CCCC3
27. Cc1ccc(C(=O)Nc2cccnc2N2CCN(C)CC2)cc1
28. O=C(CN1C(=O)CS/C1=C\c1nc(-c2ccc(Cl)cc2)cs1)Nc1cccnc1Cl
29. CCC1(C)Cc2c(C#N)c(N)sc(=S)c2CO1 (stereo unspecified)
30. C[C@@H](C(=O)NCCc1ccc(F)cc1)N1C(=O)N2CCc3c([nH]c4ccccc34)[C@@]2(C)C1=O
Compound,26,27,28,29,30
Rango complex inh,1.9%,-4.5%,0.9%,0.6%,1.8%
miR-21 FLuc,-13%,-3%,-1%,-23%,23%
Rango release inh,-14%,-12%,23%,-1%,0%
GLA inh pH 4.5,/,-12,-2,-5,/

31. CCOCCCn1c(SC(C)C(=O)NCC2CCCO2)nc2sc(C)c(C)c2c1=O (stereo unspecified)
32. O=C(CCCOc1ccc(Cl)cc1)NC1CCCCC1
33. CCOCCCNC(=O)c1ccc2c(c1)ncn2-c1ccccc1OC
34. CC(C)CC(c1nnnn1Cc1ccccc1)N1CCN(C(=O)c2ccco2)CC1 (stereo unspecified)
35. O=C1Cc2cc([N+](=O)[O-])ccc2N1c1c(Cl)cccc1Cl
Compound,31,32,33,34,35
Rango complex inh,-2.1%,0.6%,0.2%,5.7%,2.3%
miR-21 FLuc,/,-5%,-10%,0%,1%
Rango release inh,-4%,-3%,0%,11%,-1%
GLA inh pH 4.5,/,/,/,-9,/

36. O=C(O)CSc1nnc(COc2cccc3ccccc23)o1
37. COc1ccc(CNC(=O)CN(c2ccc(OC)c(Cl)c2)S(=O)(=O)c2ccc(C)cc2)cc1
38. Cc1cc(N2C(=O)C3C4C=CC(C4)C3C2=O)no1 (stereo unspecified)
39. O=c1cc(-c2ccccc2)[nH][nH]1
40. Oc1ccc(/C=N/Nc2nc(-c3ccccc3F)nc3ccccc23)c(O)c1
Compound,36,37,38,39,40
Rango complex inh,0.5%,-2.1%,-2.4%,1.4%,?
miR-21 FLuc,-1%,4%,-8%,-10%,26%
Rango release inh,0%,-17%,4%,1%,?
GLA inh pH 4.5,/,/,-2,-2,-7

41. O=C(CN1C(=O)c2ccccc2C1=O)NCCc1c[nH]c2ccccc12
42. COc1cccc(NC(=O)NNC(=O)C(C)Oc2ccc3ccccc3c2)c1 (stereo unspecified)
43. O=Cc1ccc(N2CCCC2)c([N+](=O)[O-])c1
44. Cc1cc2n(n1)C(c1cn(-c3ccccc3)nc1C)Nc1c(C)cccc1-2 (stereo unspecified)
45. Cn1c(=O)c([N+](=O)[O-])c(N2CCSCC2)c2ccccc21
Compound,41,42,43,44,45
Rango complex inh,0.1%,3.8%,4.3%,0.0%,?
miR-21 FLuc,5%,2%,2%,-5%,-12%
Rango release inh,3%,4%,-15%,12%,22%
GLA inh pH 4.5,2,/,0,1,-1

46. COC(=O)CN1C(=O)[C@H]2[C@@H](C3CC3)N3C(=O)CN(CCO)C(=O)[C@@]3(Cc3ccccc3)[C@H]2C1=O
47. CCc1cc(=O)oc2cc(C)c(CN3CCCC(C)C3)c(O)c12 (stereo unspecified)
48. Brc1ccc(-c2nnc3sc(CNCc4ccc5c(c4)OCO5)cn23)cc1
49. COc1cc(/C(C)=N/NC(=O)CN2CCN(S(=O)(=O)c3ccc(C)cc3)CC2)ccc1O
50. CCN(CC)S(=O)(=O)c1ccc(-c2nnc(SCc3nnc(-c4ccccc4)o3)o2)cc1
Compound,46,47,48,49,50
Rango complex inh,-1.0%,?,0.6%,-5.4%,0.3%
miR-21 FLuc,1%,11%,-4%,0%,-4%
Rango release inh,0%,-8%,29%,5%,24%
GLA inh pH 4.5,/,/,4,-4,4

51. Cc1ccsc1C(=O)Nc1ccccc1N1CCCC1
52. CC(c1ccncn1)N(C)Cc1nc(-c2ccc(C(F)(F)F)cc2)no1 (stereo unspecified)
53. CC(OC(=O)CNC(=O)c1ccco1)C(=O)N(C)c1ccccc1 (stereo unspecified)
54. NC(=O)C1CCN(Cc2nnnn2Cc2ccco2)CC1
55. CCC(C)NC(=O)C1c2ccccc2Oc2ccccc21 (stereo unspecified)
Compound,51,52,53,54,55
Rango complex inh,2.7%,0.5%,-2.2%,-4.1%,-0.3%
miR-21 FLuc,/,-3%,7%,-4%,5%
Rango release inh,31%,-1%,0%,3%,3%
GLA inh pH 4.5,/,-8,-5,4,-8

56. c1ccc(-c2cn(-c3ccccc3)c3[n+]2CCS3)cc1
57. CCOc1ccccc1C(=O)NCC(=O)N1CCC(C)CC1
58. Cn1c(=O)c2c(nc(Br)n2Cc2c(F)cccc2Cl)n(C)c1=O
59. COc1ccc(C)cc1NC(=O)c1ccc(NC(=O)CC2SC(N3CCCC3)=NC2=O)cc1 (stereo unspecified)
60. C=CCn1c(SCc2cc(=O)n3ccsc3n2)nc2cc(Cl)ccc2c1=O
Compound,56,57,58,59,60
Rango complex inh,3.5%,-3.7%,/,-0.2%,1.9%
miR-21 FLuc,22%,/,0%,0%,-9%
Rango release inh,12%,-9%,/,11%,-5%
GLA inh pH 4.5,5,/,-3,2,-4

An excerpt from above in order of the Rango complex inh value, largest number first:
56. c1ccc(-c2cn(-c3ccccc3)c3[n+]2CCS3)cc1
60. C=CCn1c(SCc2cc(=O)n3ccsc3n2)nc2cc(Cl)ccc2c1=O
59. COc1ccc(C)cc1NC(=O)c1ccc(NC(=O)CC2SC(N3CCCC3)=NC2=O)cc1 (stereo unspecified)
57. CCOc1ccccc1C(=O)NCC(=O)N1CCC(C)CC1
Compound,56,60,59,57
Rango complex inh,3.5%,1.9%,-0.2%,-3.7%
miR-21 FLuc,22%,-9%,0%,/
Rango release inh,12%,-5%,11%,-9%
GLA inh pH 4.5,5,-4,2,/

Next part:
61. N#CC(=C1SC=CS1)c1nc(-c2ccccc2)cs1
62. CCCNC(=O)C1CC(=O)N(c2ccc(OCc3ccc(Cl)cc3)cc2)C1 (stereo unspecified)
63. COc1ccc(CCn2c(C)cc(C(=O)COC(=O)c3cnccn3)c2C)cc1
64. COc1cccc(CNC(=O)CCCCCn2c(=S)[nH]c3ccc(N4CCOCC4)cc3c2=O)c1
65. Cc1oc2c(O)c(O)ccc2c(=O)c1-c1ccc(Cl)cc1
Compound,61,62,63,64,65
Rango complex inh,-2.2%,4.9%,0.2%,/,2.0%
miR-21 FLuc,-55%,-59%,-8%,-4%,-16%
Rango release inh,?,1%,-18%,/,-3%
GLA inh pH 4.5,-2,/,/,6,/

66. COc1cccc(NC2c3ccccc3C(=O)N2Cc2ccccc2Cl)c1 (stereo unspecified)
67. COCCCn1c(SCc2nnc(-c3ccc(OC)c(OC)c3)o2)nc2ccccc2c1=O
68. CNC(=O)NC(=O)C(C)Oc1ccccc1F (stereo unspecified)
69. CCO[C@H]1OC(C(=O)NCc2ccccc2)=C[C@@H](C(C)(C)C)[C@@H]1CCCO
70. O=c1[nH][nH]c(-c2ccccc2O)c1C(C[N+](=O)[O-])c1cccc(Cl)c1 (stereo unspecified)
71. CCC(Sc1nc2ccccc2[nH]1)C(=O)Nc1ccc(NC(C)=O)cc1 (stereo unspecified)
Compound,66,67,68,69,70,71
Rango complex inh,1.8%,5.2%,2.8%,-0.3%,9.4%,5.0%
miR-21 FLuc,-7%,-20%,-2%,/,27%,0%
Rango release inh,10%,23%,7%,-12%,26%,1%
GLA inh pH 4.5,-5,-9,-11,/,3,-14
